2A StopGo – FMDV 2A StopGo reporter, luciferase signal; human cells with a luciferase reporter of 2A StopGo recoding; control for the full effect not named in the record; Potency, µM (series often up to 57.9 µM), for inactives: at the top dose signal change, negative = less light; actives 1.2% (n = 410,000); AID 1159524; active = well fitted falling curve with a large enough effect; inconclusive = small, poorly fitted or top-dose-only effect; inactive = no such curve, though single readings can be large or run the other way; tested in HEK293T cells; note: % is set by controls: 0 for no effect and ±100 for the full control effect; nearly all actives have a fitted effect of over 45% in size; luciferase light after 4 h
NS1 inh – inhibitors of influenza NS1 protein function | Potency, µM (titrated, usually from 46.1 µM), for inactives: at the highest dose activity, positive = more growth | AID 2326 | S. cerevisiae slowed by influenza A NS1, growth recovery by OD600 | actives 0.4% (n = 270,000); active means well fitted rising curve with a large enough effect; inconclusive means small, poorly fitted or top-dose-only effect; inactive means no such curve, though single readings can be large or run the other way; note: nearly all actives have a fitted effect of over 50% in size
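OD600 was taken as the measure of yeast growth restored by compound in an NS1-expressing S. cerevisiae strain. Cells had been washed out of glucose medium and diluted 1:100 into galactose -URA medium, pH 6.0.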
MARV entry inh – Marburg virus entry inhibition; AID 540276; Marburg virus pseudotyped entry inhibition, cell reporter; control for the full effect not named in the record; about a third of the inactives were read at about 46 µM; actives 1.8% (n = 300,000); Potency, µM (highest dose often 37.8 µM), for the others: at the top dose activity change, negative = inhibition, most hits filed as inhibitors; active = well fitted inhibition curve with a large enough effect; inconclusive = small, poorly fitted or top-dose-only effect, or effect the other way; inactive = flat fitted curve, though single readings scatter; tested in HEK293 cells; about a fifth of its hits are not listed in these tables; note: % is set by controls: 0 for no effect and ±100 for the full control effect; luciferase read-out
Lassa entry inh – inhibitors of Lassa virus binding or cell entry | Lassa virus pseudotype entry inhibition, cell reporter; control for the full effect not named in the record | Potency, µM (highest dose often 37.9 µM), inactives show at the top dose activity change, negative = inhibition, actives largely listed as inhibitors | actives 1.2% (n = 300,000); active means well fitted inhibition curve with a large enough effect; inconclusive means small, poorly fitted or top-dose-only effect, or effect the other way; inactive means flat fitted curve, though single readings scatter; tested in HEK293 cells; note: % is set by controls: 0 for no effect and ±100 for the full control effect; nearly all actives have a fitted effect of over 50% in size; luciferase read-out
RE007 growth inh – less growth of the S. pombe RE007 Vpr strain; Potency, µM (series often up to 92.2 µM), without a hit: at the highest dose activity change, negative = less growth; S. pombe RE007 Vpr strain, BacTiter-Glo ATP luminescence, 24 h; control for the full effect not named in the record; actives 0.21% (n = 360,000); AID 651644; active = well fitted falling curve with a large enough effect; inconclusive = small, poorly fitted or top-dose-only effect; inactive = no such curve, though single readings can be large or run the other way;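 note: % is set by controls: 0 for no effect and ±100 for the full control effect; nearly all actives have a fitted effect of over 50% in size; the assay follows cell death caused by Vpr and the record does not say whether a fall means rescue or toxicity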
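Fission yeast RE007 carrying one integrated HIV-1 vpr copy, seeded at OD 0.01 in PMG+AL medium with 23 nL pinned compound. Grown 24 h at 30 degrees; viability read by BacTiter-Glo luminescence after 5 min.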
SARS PLpro yeast – inhibitors of SARS-CoV papain-like protease in yeast | AID 485353 | S. cerevisiae expressing SARS-CoV PLpro, growth rescue; control for the full effect not named in the record | Potency, µM (top dose mostly 32.9 µM), for the others: at the top dose activity, positive = growth rescue | actives 0.19% (n = 330,000); active means well fitted rising curve with a large enough effect; inconclusive means small, poorly fitted or top-dose-only effect; inactive means no such curve, though single readings can be large or run the other way; note: 0% is about no effect; nearly all actives have a fitted effect of over 55% in size; growth read by luminescence after 48 h
Cruzain inh Det – cruzain (T. cruzi) inhibition with detergent | Potency, µM, for inactives: max response, negative = inhibition, actives largely listed as inhibitors | actives 0.43% (n = 200,000) | purified cruzain, Z-FR-AMC fluorescence, 0.01% Triton | P25779;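 note: plate controls were neutral wells for no effect and buffer without enzyme for full effect; nearly all actives have a fitted effect of over 40% in size; top concentration of the series not given in the record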
Target sequence (P25779 123-467 limits assumed): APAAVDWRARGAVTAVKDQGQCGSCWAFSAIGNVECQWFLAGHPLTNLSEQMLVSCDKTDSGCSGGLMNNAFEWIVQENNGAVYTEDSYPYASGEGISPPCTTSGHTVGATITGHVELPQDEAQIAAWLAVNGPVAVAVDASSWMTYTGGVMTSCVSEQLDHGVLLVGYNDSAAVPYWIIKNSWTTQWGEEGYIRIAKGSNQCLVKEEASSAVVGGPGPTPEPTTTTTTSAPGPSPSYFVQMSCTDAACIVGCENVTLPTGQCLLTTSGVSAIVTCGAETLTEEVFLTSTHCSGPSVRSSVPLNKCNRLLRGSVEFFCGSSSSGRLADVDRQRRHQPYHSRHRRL
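Cysteine protease activity tested under reducing, mildly acidic conditions (100 mM sodium acetate pH 5.5, 5 mM DTT) plus 0.01% Triton X-100. Cruzain 1.5 nM; substrate Z-FR-AMC 2 uM; 15 min compound preincubation at room temperature.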
Cruzain inh noDet – blocks cruzain activity in detergent-free assay; P25779; purified cruzain, Z-FR-AMC fluorescence, no detergent; Potency, µM, for the others: max response, negative = inhibition, usual class: inhibitors; actives 2.3% (n = 200,000); AID 1476;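 note: plate controls were enzyme without inhibitor for no effect and buffer without enzyme for full effect; nearly all actives have a fitted effect of over 40% in size; top concentration of the series not given in the record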
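Purified cruzain at 1.5 nM, pre-incubated 15 min with compound at room temperature in 100 mM sodium acetate pH 5.5, 5 mM DTT, 0.00005% Triton X-100. Reaction started with 2 uM Z-FR-AMC; AMC fluorescence increase over 60 s gives rate.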
* = called active by the depositor; ? = inconclusive; / = not tested or not shown; [ ] = remark or other dose. Unless noted, calls come from the whole dose curve; as a rule, active = well fitted curve in the direction sought with a large enough effect; inconclusive = small, poorly fitted or top-dose-only effect, or another doubt; inactive = no such curve, though single readings can be large; an effect the other way counts as inactive or inconclusive. Potency is the fitted concentration of half-maximal effect.

1. CCOc1ccc(-c2nc(Cn3c(=O)cc(-c4ccccc4)c4c(C)nn(C)c43)c(C)o2)cc1OC
2. Cc1cc2c(c(=O)n1CCN(C)C)C(c1ccc(Cl)cc1)C(C#N)=C(N)O2 (configuration not stated)
3. O=C(NCc1ccccn1)NC1CCCCC1
4. CCc1ccc(NC(=O)Cc2cn(C)c3ccccc23)cc1
5. Clc1ccc(CNc2cnccn2)cc1
6. O=C(/C=C\c1ccc2c(c1)OCO2)NC1(C(=O)Nc2ccc3c(c2)OCCO3)CCCCC1
7. O=C(Nc1ccccc1Cl)c1cc[n+](Cc2ccc([N+](=O)[O-])cc2)cc1
8. Cn1c(-c2ccc(-c3ccccc3)cc2)c[nH]c1=S
assay / compound	1	2	3	4	5	6	7	8
2A StopGo	-6%	-4%	5%	53%[activator]	1%	1%	-7%	20%
NS1 inh	/	4%	19%	-116%	/	-16%	4%	-47%
MARV entry inh	/	-12%	?	2%[46.1 µM]	9%[46.1 µM]	-10%	12%	?
Lassa entry inh	?	-1%	18%	-7%	-6%	2%	15%	?
RE007 growth inh	/	-18%	16%	13%	1%	-18%	-2%	0%
SARS PLpro yeast	/	3%	7%	-17%	-1%	1%	-1%	?
Cruzain inh Det	-2.3%	-8.4%	0.6%	-9.1%	/	-2.8%	/	-8.8%
Cruzain inh noDet	-3%	-8%	-1%	-2%	/	2%	/	10µM*

From compound 1 as far as 2, copied from above:
1. CCOc1ccc(-c2nc(Cn3c(=O)cc(-c4ccccc4)c4c(C)nn(C)c43)c(C)o2)cc1OC
2. Cc1cc2c(c(=O)n1CCN(C)C)C(c1ccc(Cl)cc1)C(C#N)=C(N)O2 (configuration not stated)
assay / compound	1	2
2A StopGo	-6%	-4%
NS1 inh	/	4%
MARV entry inh	/	-12%
Lassa entry inh	?	-1%
RE007 growth inh	/	-18%
SARS PLpro yeast	/	3%
Cruzain inh Det	-2.3%	-8.4%
Cruzain inh noDet	-3%	-8%

Next part:
9. Cc1cccc(OCCC(=O)Nc2ccc(C)c(S(=O)(=O)N3CCCCC3)c2)c1
10. O=C(N/N=C/c1ccc(N2CCOCC2)s1)c1ccccc1Cl
11. COc1ccc(CC(C)CC(=O)Nc2ccc(OC)cc2)cc1 (configuration not stated)
12. Cc1ccc(C)c(Cn2c(C(C)NC(=O)c3ccccc3)nc3ccccc32)c1 (configuration not stated)
13. CCN(CC)C(=O)C(=O)c1cccn1-c1cccc(Cl)c1C#N
14. CCOC(=O)c1sc(N=Nc2c(O)[nH]c(=O)[nH]c2=O)c(C(=O)OCC)c1C
15. Cc1ccc(CN2C(=O)N/C(=C\c3ccc(N4CCOCC4)cc3)C2=O)cc1
16. CCC1CCCN1Cn1cnc2c([nH]c3ccc(OC)cc32)c1=O (configuration not stated)
assay / compound	9	10	11	12	13	14	15	16
2A StopGo	-9%	27%	4%	-15%	11%	/	-13%	1%
NS1 inh	5%	/	-8%	/	-3%	29%	1%	-5%
MARV entry inh	?	0%	?	0%[46.1 µM]	-14%[46.1 µM]	-8%	8%	-1%
Lassa entry inh	?	12%	-9%	7%[46.1 µM]	0%	-14%	0.046µM*	15%
RE007 growth inh	6%	-7%	24%	/	-3%	/	1%	-12%
SARS PLpro yeast	-14%	3%	1%	/	2%	-2%	-6%	1%
Cruzain inh Det	-10%	/	/	-2.0%	2.1%	4.1%	-3.6%	-3.1%
Cruzain inh noDet	6%	/	/	15%	-11%	11%	-2%	-8%

17. CN(C)C1(CNC(=O)C2CCN(S(=O)(=O)c3cccc(C(F)(F)F)c3)CC2)CCCCC1
18. O=C(O)C1CCCN1C(=O)Nc1ccccc1 (configuration not stated)
19. CCOC(=O)c1ccc(NC(=O)Nc2ccccn2)cc1
20. CCC(CC)c1nnc(NC(=O)c2ccco2)s1
21. CCOCCCNC(=O)c1ccc(N2CCCC2)c(NS(=O)(=O)c2ccc(C)cc2)c1
22. Cc1cc(=O)oc2cc(OCC(=O)Nc3cccc(S(=O)(=O)N(C)C)c3)ccc12
23. COc1ccc(CNC(=O)C(c2ccncc2)N(C(=O)Cc2cccs2)c2ccccc2)cc1 (configuration not stated)
24. CC1CCc2nc(NC(=O)CN3CCOCC3)sc2C1 (configuration not stated)
assay / compound	17	18	19	20	21	22	23	24
2A StopGo	-8%	1%	31%	30%	43%[activator]	-19%	-4%	35%[activator]
NS1 inh	2%	12%	-33%	-30%	/	2%	4%	4%
MARV entry inh	?	?	6%[46.1 µM]	?	?	?	?	?
Lassa entry inh	-3%	10%	8%	13%[46.1 µM]	-7%	0%	-8%	30%
RE007 growth inh	-8%	-3%	-4%	-11%	-13%	-3%	15%	17%
SARS PLpro yeast	-1%	-1%	-2%	-6%	0%	0%	-25%	-1%
Cruzain inh Det	/	-0.8%	/	/	/	0.4%	-1.7%	1.2%
Cruzain inh noDet	/	11%	/	/	/	-2%	1%	-2%

25. N#Cc1c(Nc2ccc(F)cc2)sc(C(=O)c2ccccc2)c1N
26. COc1ccccc1CNC(=O)[C@H](C)NC(=O)C1CCN(C(=O)[C@@H](N)CC(C)C)CC1
27. O=C(/C=C/c1ccccc1Cl)NC1CCCCC1
28. Cc1c(NC(=O)c2cc(-c3ccco3)on2)c(=O)n(-c2ccccc2)n1C
29. Cc1nnn(C23CC4CC(CC(CC(=O)Nc5cccc(F)c5)(C4)C2)C3)n1
30. CCC(CC)COC(=O)C(C#N)c1nc2ccccc2nc1N1CCOCC1 (configuration not stated)
31. Cc1cc(NC(=O)C(C)SCC(=O)Nc2ccc(Br)cc2Br)no1 (configuration not stated)
32. Cc1ccc2nc(N(CCN(C)C)C(=O)/C=C/c3cccs3)sc2c1
assay / compound	25	26	27	28	29	30	31	32
2A StopGo	?	-21%	63%[activator]	13%	-10%	?	-29%	-16%
NS1 inh	2%	-2%	-2%	-3%	-3%	-93%	/	2%
MARV entry inh	-25%	/	/	1%	?	?	-30%	-1%
Lassa entry inh	?	/	/	7%	-17%[46.1 µM]	?	?	?
RE007 growth inh	-11%	-1%	2%	4%	23%	1%	13%	13%
SARS PLpro yeast	8%	-1%	1%	4%	-1%	-15%	/	-11%
Cruzain inh Det	-6.9%	/	/	0.9%	/	-12%	/	-12%
Cruzain inh noDet	7%	/	/	-7%	/	12%	/	-3%

33. COc1cccc(CCNC(=O)c2ccc(C#N)cc2)c1
34. COCCSc1nnc(NC(=O)C2CC(=O)N(c3ccc(C)cc3)C2)s1 (configuration not stated)
35. O=C(CN1CCN(c2ccc(Cl)cc2)CC1)NCc1cccs1
36. Cc1cccn2c(=O)c3cc(C(=O)NCCc4ccc(S(N)(=O)=O)cc4)n(C)c3nc12
37. Cc1ccc2nc(N(Cc3cccnc3)C(=O)Cc3ccccc3)sc2c1
38. Cc1ccc(-c2[nH]nc(N)c2N=Nc2ccccc2C)cc1
39. c1ccc(CNc2nc(-c3cccnc3)nc3ccccc23)cc1
40. Cc1cc(Cl)ccc1C(=O)C1CCCN(C(=O)CCn2cncn2)C1 (configuration not stated)
assay / compound	33	34	35	36	37	38	39	40
2A StopGo	16%	2%	-2%	-1%	27%	3%	?	-20%
NS1 inh	-6%	-1%	4%	/	/	-79%	-40%	0%
MARV entry inh	?	/	13%	/	/	8.2µM*	/	-16%[46.1 µM]
Lassa entry inh	6%	/	2%	0%[46.1 µM]	?	?	/	-6%[46.1 µM]
RE007 growth inh	-1%	123%	12%	/	/	?	-15%	-1%
SARS PLpro yeast	-2%	0%	-1%	/	/	-43%	-5%	-9%
Cruzain inh Det	/	/	/	-14%	-6.7%	-12%	-5.5%	/
Cruzain inh noDet	/	/	/	?	2%	-15%	8%	/

41. Cn1cnc2c1c(=O)n(Cc1cccc(Cl)c1)c(=O)n2C
42. O=C(CN1C(=O)c2ccccc2C1=O)Nc1ccc2c(c1)OCO2
43. COc1ccccc1/C=N/NC(=O)CNC(=O)c1ccc(S(=O)(=O)N(C)C)cc1
44. Cc1noc(C)c1C(=O)OC(C)C(=O)Nc1ccc(S(=O)(=O)NC(C)C)cc1 (configuration not stated)
45. COc1ccc(C(=O)NCC(=O)N/N=C/C=C/c2ccccc2)cc1OC
46. Cc1cccc(N2CCN(C(=O)C3CCN(S(=O)(=O)Cc4ccccc4)CC3)CC2)c1C
47. N#Cc1ccccc1Cn1c(=O)n(CCC(=O)NCc2ccco2)c(=O)c2ccccc21
48. O=S(=O)(Nc1ncccn1)c1cc(Cl)ccc1Cl
assay / compound	41	42	43	44	45	46	47	48
2A StopGo	-4%	7%	-6%	5%	-4%	?	21%	8%
NS1 inh	-2%	8%	/	-2%	/	/	0%	11%
MARV entry inh	1%	11%	22%[46.1 µM]	14%	?	-26%[46.1 µM]	13%	0%
Lassa entry inh	14%	0%	16%[46.1 µM]	-23%	2%	-1%[46.1 µM]	11%	?
RE007 growth inh	14%	6%	12%	1%	2%	/	-4%	-8%
SARS PLpro yeast	0%	-1%	3%	-9%	2%	/	?	31%
Cruzain inh Det	/	1.1%	/	0.9%	/	-3.1%	-1.4%	/
Cruzain inh noDet	/	-15%	/	1%	/	4%	-20%	/

49. O=C(CNC(=O)c1ccc(N2C(=O)c3ccccc3C2=O)cc1)OCC(=O)c1ccccc1
50. O=C(C1=C[C@@H](C2CC2)C[C@@H](OCCCCO)O1)N1CCN(Cc2ccccc2)CC1
51. O=C(Nc1ccccc1)/C(=C/c1cccnc1)NC(=O)c1ccccc1
52. O=C(Cn1ccc2ccccc2c1=O)NCCC(=O)NC1CCN(Cc2ccccc2)CC1
assay / compound	49	50	51	52
2A StopGo	-15%	-1%	-3%	5%
NS1 inh	8%	4%	8%	?
MARV entry inh	16%	/	/	-20%[46.1 µM]
Lassa entry inh	-11%	/	/	-2%
RE007 growth inh	-19%	-10%	-5%	-8%
SARS PLpro yeast	3%	0%	-3%	1%
Cruzain inh Det	-1.5%	/	/	3.8%
Cruzain inh noDet	-24%	/	/	-9%

High-throughput results: PubChem BioAssay, National Center for Advancing Translational Sciences (NCATS)
